Screening data deposited in PubChem BioAssay by National Center for Advancing Translational Sciences (NCATS).
PINK1 expr mod – PINK1 expression modulation. PINK1 immunofluorescence, high-content cytometry, 24 h. Potency, µM (series often up to 76.6 µM), without a hit: top-dose activation (PINK1 increase), hits mostly activators. hit rate 0.2% among 410,000. AID 624263; active = well fitted activation curve with a large enough effect; inconclusive = small, poorly fitted or top-dose-only effect; inactive = flat fitted curve, though single readings scatter; cell line not stated here;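 note: potency is the fitted concentration of half-maximal effect; % of control where 0% means no effect; nearly all actives have a fitted effect of over 65% in size; a mitochondrial uncoupler was the plate control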
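PINK1 protein level read as immunofluorescence by microplate cytometer in a fixed, stained stable cell line after 24 h exposure to five compound concentrations, with CCCP as control.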
TRPML1 agonist – agonists of human TRPML1 channel | Q9GZU1 | TRPML1-expressing cells, Ca2+ dye fluorescence, FDSS; host cell line not named in the record; reference of the full effect not given here | activation, % (test concentration not listed) | hit rate 0.12% among 410,000 | AID 624414; in the data active = activation above about 50%; inconclusive = about 30% to 50%; inactive = below about 30%; note: 0% is about no effect; the text of the record puts the active cut at 80%
Target sequence (Q9GZU1 whole entry, looked up): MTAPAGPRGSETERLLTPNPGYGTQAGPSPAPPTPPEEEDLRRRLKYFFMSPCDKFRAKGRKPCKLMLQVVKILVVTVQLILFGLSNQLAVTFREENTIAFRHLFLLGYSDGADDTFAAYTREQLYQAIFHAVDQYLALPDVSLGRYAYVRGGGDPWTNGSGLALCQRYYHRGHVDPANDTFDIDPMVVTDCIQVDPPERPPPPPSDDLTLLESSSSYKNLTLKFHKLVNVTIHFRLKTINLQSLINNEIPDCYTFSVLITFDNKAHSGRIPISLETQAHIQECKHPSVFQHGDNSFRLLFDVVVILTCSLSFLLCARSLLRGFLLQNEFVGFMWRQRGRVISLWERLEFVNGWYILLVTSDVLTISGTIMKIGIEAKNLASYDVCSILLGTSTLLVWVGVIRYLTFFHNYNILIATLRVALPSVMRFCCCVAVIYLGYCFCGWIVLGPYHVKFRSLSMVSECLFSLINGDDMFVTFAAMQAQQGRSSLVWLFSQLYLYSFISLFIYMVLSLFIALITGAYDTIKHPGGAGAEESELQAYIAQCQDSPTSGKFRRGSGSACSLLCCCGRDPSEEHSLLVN
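In this qHTS format, compounds were pin-transferred onto Ca8-dye-loaded TRPML1-DL cells induced with Tet overnight, and intracellular Ca2+ fluorescence was recorded kinetically for 110 s after a 10 s baseline. A subsequent 4uM final 54-4 (EC80) addition followed by a second 110 s read served as the antagonist phase.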
ClpP mod – qHTS Assay for Activators of ClpP | purified B. subtilis ClpP, FRET peptide cleavage, 20 min | Potency, µM (top dose mostly 57.5 µM), for inactives: at the highest dose activity change, negative = active | hit rate 1.9% among 340,000 | AID 651965, 2013; active = well fitted falling curve with a large enough effect; inconclusive = small, poorly fitted or top-dose-only effect; inactive = no such curve, though single readings can be large or run the other way; note: potency is the fitted concentration of half-maximal effect; the source files actives as falling curves though it sought activators and does not explain the sign; nearly all actives have a fitted effect of over 65% in size; many hits overshoot -100%
Target sequence (P80244 whole entry, looked up): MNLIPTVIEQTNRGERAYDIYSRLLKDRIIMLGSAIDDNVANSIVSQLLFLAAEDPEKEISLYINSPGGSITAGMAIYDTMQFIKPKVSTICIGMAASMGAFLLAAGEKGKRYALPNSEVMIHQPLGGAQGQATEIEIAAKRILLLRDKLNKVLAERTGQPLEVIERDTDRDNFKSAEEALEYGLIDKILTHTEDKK
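ClpP 10 microg/mL final, pH 8 Tris/KCl buffer with BSA, glycerol, Tween-20; compound pinned in; FRET-FV substrate; RT 20 min; Ex320/Em430; ΔFRET vs ADEP 5.8 microM, DMSO, no enzyme.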
TRPV1 potentiator – human TRPV1 potentiation. Q8NER1. TRPV1-expressing cells, Fluo-8 calcium influx, capsaicin EC20 potentiation; host cell line not named in the record; control for the full effect not named in the record. potentiation, % at 8.33 µM. hit rate 0.02% among 320,000. AID 540277; active means potentiation above 80%; inconclusive means 30% to 80%; inactive means below 30%; note: 0% is about no effect
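TRPV1-expressing cells were cultured overnight at 35.5C and loaded with Fluo-8 calcium dye for 40 to 90 min at room temperature. After a 10 s baseline, compound was added and calcium influx was read kinetically for 3 min (ex 480/em 520 nm).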
Sfp PPTase inh – Sfp phosphopantetheinyl transferase inhibition. Q9F4F7. Biochemical Sfp PPTase activity, qHTS. Potency, µM, without a hit: max response, negative = inhibition, most hits filed as inhibitors. hit rate 3.5% among 310,000. AID 1490; active = well fitted inhibition curve with a large enough effect; inconclusive = small, poorly fitted or top-dose-only effect, or another doubt; inactive = no such curve, though single readings can be large or run the other way;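 note: the enzyme is Sfp with the accession as filed and its product quenches rhodamine fluorescence; potency is the fitted concentration of half-maximal effect; 0% = enzyme reaction without inhibitor and -100% = no enzyme wells; top concentration of the series not given in the record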
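Step 1, compound plus 15 nM Sfp-PPTase, 15 min, room temperature. Step 2, add rhodamine-CoA (5 uM) and BHQ-2-YbbR (12.5 uM). Step 3, read 525/598 nm fluorescence at 0 and 30 min.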
TRPML1 inh – human mucolipin-1 channel inhibition; TRPML1-inducible cells, Ca2+ dye fluorescence, FDSS; hits give low values; inhibition of EC80 agonist-evoked calcium signal; activity change, negative = inhibition, % (concentration not given with the values); hit rate 0.02% among 390,000; in the data active means activity change below about -50%; inconclusive means about -30% to -50%; inactive means above about -30%;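 note: stimulus is agonist 54-4 at its EC80 concentration; % is set by controls: 0 for no effect and ±100 for the full control effect; compound concentration not given in the record; the text of the record puts the active cut at -80%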
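Calcium fluorescence in TRPML1-DL cells induced overnight with Tet: a 110 s read after compound pin addition, then a 110 s antagonist read after challenge with 54-4 at 4 uM final (EC80).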
Menin-MLL FL inh – menin-MLL binding inhibition, fluorescein peptide. Fluorescence polarization, fluorescein-MLL peptide displacement from menin. FP activity change, % at 61.4 µM. 290,000 tested, under 10 active. AID 1766; inconclusive = falling polarisation curve, or a change in total fluorescence; inactive = total fluorescence flat and polarisation flat or rising; no compound was filed as active; the % refers to the polarisation; negative = inhibition;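 note: % of control where 0% means no effect; inhibitors lower the polarisation; unlabelled MLL peptide was the positive control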
Active calls of the source: *; u = inconclusive; x = not tested or not shown; & = joins results of further samples; [ ] = dose if it differs, or a comment. Rows were taken by chance; any-hit rate near 4.4%.

smiles	PINK1 expr mod	TRPML1 agonist	ClpP mod	TRPV1 potentiator	Sfp PPTase inh	TRPML1 inh	Menin-MLL FL inh
CCOc1ccc(C2CC(=O)NC(NC(=O)c3cccc(Cl)c3)=N2)cc1 (stereo not given)	12%	1.1	-0.9%	x	x	-14	x
C/C(CCC(C)C)=N\Nc1cc(C)c2ccccc2n1	2.9%	-0.1	0.7%	7	28µM*	2	7.1
Cn1c(=O)c2c(ncn2CC(=O)N/N=C/c2cn[nH]c2-c2ccc(F)cc2)n(C)c1=O	-1.0%	0.7	-0.8%	5	25%	-4	1.0
Cc1c(-c2ccccc2)oc2c(C(=O)N3CCN(c4ccccc4F)CC3)cccc2c1=O	-0.4%	-0.1	1.7%	-1	7%	13	1.6
CCn1c(COc2ccc(C)cc2)nnc1SCC(=O)C(C)(C)C	-1.0%	1.5	u	-19	-5%	23	2.2
O=C(Nc1cc(S(=O)(=O)N2CCOCC2)ccc1N1CCCC1)c1ccccc1F	-1.2%	-0.5	0.1%	x	x	14	x
COC(=O)CSc1nnc(-c2cccnc2)n1-c1cccc(OC)c1	-3.5%[38.3 µM]	0.0	-0.4%	5	20%	-11	5.1
Cc1ccc(S(=O)(=O)C(C#N)c2nc3ccccc3nc2N2CCCC2)cc1C (stereo not given)	4.2%[38.3 µM]	1.1	-9.7%	10	50µM*	0	u
Cc1c(Cl)cccc1NC(=O)CSCc1cc(=O)[nH][nH]1	1.2%	0.1	-3.0%	29	3%	0	0.0
COC(=O)c1ccc(OCC2c3cc(OC)c(OC)cc3CCN2C(C)=O)cc1 (stereo not given)	0.5%	-1.2	0.7%	-1	14%	6	-0.2
COc1ccc(S(=O)(=O)N2CCC(C(=O)N[C@@H](C)C(=O)NCc3ccncc3)CC2)cc1	-1.8%	-0.6	-1.8%	-13	5%	-8	x
CC1=C(C)CS(=O)N(c2ccc(S(N)(=O)=O)cc2)C1 (stereo not given)	1.2%	5.1	0.2%	-11	25µM*	6	-0.6
CCN1C(C)=C(C)S/C1=C1\SC(=S)N(N)C1=O	15%	-0.1	x	0	20µM*	1	10
O=C(CSc1ccccc1)Nc1cccnc1	2.6%	-0.5	1.2%	-4	3%	25	4.1
CC(C)(C)c1ccc(COn2ccnc2)cc1	-0.8%	0.9	-1.2%	15	12%	-3	-1.9
Cn1cnnc1SCC(=O)n1c2ccccc2c2ccccc21	5.9%	-1.0	25%	-2	7%	6	0.0
CC1(CCc2ccccc2)NC(=O)N(CC(=O)N2CC(=O)Nc3ccccc32)C1=O (stereo not given)	1.2%	-0.3	-0.2%	u	u	1	1.5
Cc1ccc(-n2[nH]c(C)c(C=Nc3ccc(C)cn3)c2=O)cc1	x	-0.4	-13%	2	2%	4	1.3
CN1CCN(c2ccc(NC(=O)c3ccc(Oc4ccccc4)cc3)cc2)CC1	2.2%	-1.5	-1.2%	13	0%	7	2.4
Cc1c(CC(C)C)nc(N)c(C#N)c1-c1ccccc1	4.9%	0.0	u	-1	1%	-19	0.1
CCn1c(SCC(=O)c2cc(C)n(CC3CCCO3)c2C)nc2ccccc21 (stereo not given)	1.5%	0.4	-3.9%	15	-12%	-8	3.9
NC(=O)CSc1nnc(COc2ccc3ccccc3c2)o1	-1.2%	0.4	x	10	4%	-16	-6.4
Cc1noc(C)c1COc1ccccc1C(=O)N1CCN(S(=O)(=O)c2ccccc2C#N)CC1	-1.0%	0.2	-2.0%	x	x	3	x
Cc1cccc(-c2nc3nc(C)cc(NCc4ccccc4Cl)n3n2)c1	2.4%	2.7	-0.3%	x	x	3	x
c1csc(C2Nc3cccc4cccc(c34)N2)c1	0.5%	1.9	-11%	5	u	0	u
CCc1nn(CCCC(=O)N2CCC(C)CC2)c(=O)c2cc3occc3n12	3.4%	-0.9	-3.5%	16	-6%	-7	x
CCc1ccc(Sc2cc(C(=O)NCCCN3CCCC(C)C3)c3ccccc3n2)cc1 (stereo not given)	17%	0.6	-1.7%	x	x	8	x
O=S(=O)(Nc1ccc(NS(=O)(=O)c2ccccc2)c2ccccc12)c1ccccc1	2.6%	0.9	-0.6%	x	x	-7	x
CN(Cc1nc2ccccc2n1C)S(C)(=O)=O	6.6%[38.3 µM]	-0.5	1.4%	1	8%	10	-0.4
O=C(c1ccc(Cl)cc1)C1CCN(C(=O)NC2CCCCC2)CC1	1.3%[38.3 µM]	0.3	-3.3%	-11	5%	25	-0.4
CC(C)(C)NC(=O)COC(=O)c1ccc(S(=O)(=O)N2CCCCCC2)cc1	5.5%	0.6	-2.3%	-4	11%	59	1.8
CN(C)C(=S)NC(=O)C(c1ccccc1)c1ccccc1	3.9%	-0.2	x	10	6%	-9	4.2
CNC(=O)CCn1nc(-c2ccc(C)cc2)c2ccccc2c1=O	-0.7%	-0.4	1.4%	20	2%	10	-5.3
COc1ccc([N+](=O)[O-])cc1NC(=O)c1cccnc1	1.4%	-0.6	x	-9	11%	-10	-1.0
C/C(=N/NS(=O)(=O)c1ccc(C(C)C)cc1)c1ccncc1	-0.6%	-0.7	1.7%	-4	9%	-3	-5.4
Cc1ccccc1NS(=O)(=O)c1ccc(N2CCCC2=O)cc1	2.8%	-0.9	-2.3%	1	11%	2	1.7
CCOc1ccc(NC(=O)CC(NCc2ccccn2)C(=O)O)cc1 (stereo not given)	-0.7%	0.3	x	-1	18%	-13	1.7
CCN1CCN(c2ccc(NC(=O)c3ccc(Br)o3)cc2)CC1	-1.3%	-0.2	-0.5%	0	16%	0	1.8
O=C(COC(=O)CNC(=O)c1ccc(Cl)c([N+](=O)[O-])c1)NCC1CCCO1 (stereo not given)	0.6%	-0.8	-3.1%	11	x	0	x
COCn1c(C(O)c2ccccc2)cc2ccccc21 (stereo not given)	1.6%	0.3	-0.8%	16	10%	-5	0.7
Cn1cccc1C(=O)OCc1ccc(F)cc1	-2.8%	2.9	x	2	2%	1	-0.6
COc1cccc2c1C(=O)CC1C2CCC2CC(=O)CCC21C (stereo not given)	-0.3%	-1.0	x	x	x	-10	x
O=C(NCCOc1ccccc1)c1cccc(S(=O)(=O)NCc2ccccc2)c1	3.4%	-0.7	x	-4	x	-3	x
COc1ccc(CN(C)C(=O)COC(=O)c2ccc(-c3ccccc3)cc2)c(OC)c1OC	4.2%	0.4	u	17	x	1	x
O=C1/C(=N\S(=O)(=O)c2cccs2)C([n+]2cccc(Cc3ccccc3)c2)=C([O-])c2ccccc21	5.5%	1.7	x	2	-1%	-4	u
Cc1ccc2c(c1)CC1(CN2C)C(=O)OC2(CCCCC2)OC1=O	1.8%&0.4%	0.6&-0.3	-2.8%&-2.7%	-1	-5%	-17	3.0
C=CCNC(=O)Nc1ccc(F)c(Cl)c1	1.7%	-0.1	1.0%	2	21%	5	-1.5
CC(=O)c1c(C)[nH]c(C(=O)CSc2nc3ccccc3c(=O)n2CCCO)c1C	0.9%	-0.8	-1.5%	-3	2%	4	-1.7
COc1ccc(NC(=O)Nc2nc(C(N)Cc3ccc(C(F)(F)F)cc3)cs2)cc1 (stereo not given)	-0.3%	0.3	-0.6%	x	x	x	x
COc1cc(CCC(=O)OCC(N)=O)cc(OC)c1OC	0.9%	0.0	-2.6%	4	27%	-3	0.1
CCOCCCNC(=O)C(c1ccc(C)cc1)N(Cc1ccc2c(c1)OCO2)C(=O)c1ccc(NC(C)=O)cc1 (stereo not given)	1.2%	0.5	1.0%	x	x	-19	x
Clc1nccc2c1ccc1ccccc12	-1.2%	-0.2	-14%	x	7%	x	1.0&2.6
CN1C[C@@H]2[C@@H]3C(=O)N(Cc4ccccc4)C(=O)[C@@H]3[C@](Cc3ccccc3)(C1=O)N2C(=O)c1ccc(Cl)cc1	0.7%	0.7	-0.7%	x	x	6	x
Cc1ccc(NC(=S)Nc2ccc3cn[nH]c3c2)c(C)c1	1.7%	0.1	x	0	2%	-2	-0.5
Clc1ccc(-c2nn3c(-c4ccccn4)nnc3s2)c(Cl)c1	x	x	x	-1	15%	x	4.2
CCC(CC)C(=O)NC12CC3CC(CC(C3)C1)C2	1.4%	-0.7	-1.0%	6	19%	-7	2.7
CCNC(=S)N(CCc1c(C)[nH]c2ccc(OC)cc12)Cc1cccnc1	0.6%	1.6	x	4	7%	1	-6.1
CSc1ncc(C(=O)N2CCN(c3cc(C)ccc3C)CC2)c(C)n1	3.8%	0.8	-3.6%	x	x	8	x
COc1ccc(-c2cc3ccc(O)c(CN4CCCC4)c3oc2=O)cc1	0.6%	5.0	4.8%	x	x	55	x
O=C1c2ccccc2-c2onc3ccc(NCc4ccco4)c1c23	u	21	1.2%	5	-15%	-15	u

(list continues)
smiles	PINK1 expr mod	TRPML1 agonist	ClpP mod	TRPV1 potentiator	Sfp PPTase inh	TRPML1 inh	Menin-MLL FL inh
COc1cccc(CNS(=O)(=O)c2cc3c(cc2C)n(C)c(=O)c(=O)n3C)c1	7.5%&3.0%	0.4&4.8	-4.4%&-28%	-11	6%	12&12	-5.7
CCOC(=O)c1ccc(N2C(=O)c3n[nH]c(C)c3C2c2ccc(C(C)C)cc2)cc1 (stereo not given)	15%	-0.2	1.1%	x	x	-18	x
CC(c1ccccc1)C(CC(=O)O)C(=O)NC1CCCCC1 (stereo not given)	-0.6%	-0.2	1.2%	x	9%	4	3.8
Cn1c(CSc2nc3ccccc3s2)nnc1SCC(=O)NCCN1CCOCC1	-1.7%[38.3 µM]	0.7	-3.4%	16	1%	1	0.7
